AF4-AF9 inh = inhibitors of AF4 peptide binding to AF9, primary screen, biochemical, AlphaScreen, biotin-AF4 peptide, FLAG-AF9, single point | Protein AF-9 (Homo sapiens), P42568 | inhibition, % at 10 µM | hit rate 0.47% among 350,000 | AID 651704, 2012;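 active = every replicate reaching a set inhibition limit, whatever the replicate mean, cut at about 25% in these data; inconclusive = mean inhibition reaches that limit but some replicates miss it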;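 note: 0% = plate neutral control median and 100% = total signal loss; the record names both 10 and 1 µM as test concentration; the first replicate is given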
E coli growth = E. coli growth inhibition, primary screen, OD600; OD600 absorbance (concentration not given with the values); hit rate 0.21% among 330,000; Escherichia coli growth, 23 h; hits give low values;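 active = OD600 absorbance below the run mean of sample wells minus 3.6 SD, in any replicate, cut at about 0.56 in these data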;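 note: stock transfer was 300 nL into about 60 µL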
HNF4A DNA FP = change in binding of human HNF4A to DNA, primary screen, biochemical, fluorescence polarization, FITC-DNA; Hepatocyte nuclear factor 4-alpha (Homo sapiens), P41235; 1 h; activity change, % at 10 µM; hit rate 0.3% among 360,000; AID 1224865, 2016; in the data active = activity change above about 30%, passing the limit was not always enough;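 note: controls were the assay level and a saturating level of protein; the project sought stronger binding though the title names inhibitors; some compounds called inactive have numbers as strong as hits; positive values seem to mean higher polarization but the record does not say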
Target sequence (P41235 whole entry, looked up): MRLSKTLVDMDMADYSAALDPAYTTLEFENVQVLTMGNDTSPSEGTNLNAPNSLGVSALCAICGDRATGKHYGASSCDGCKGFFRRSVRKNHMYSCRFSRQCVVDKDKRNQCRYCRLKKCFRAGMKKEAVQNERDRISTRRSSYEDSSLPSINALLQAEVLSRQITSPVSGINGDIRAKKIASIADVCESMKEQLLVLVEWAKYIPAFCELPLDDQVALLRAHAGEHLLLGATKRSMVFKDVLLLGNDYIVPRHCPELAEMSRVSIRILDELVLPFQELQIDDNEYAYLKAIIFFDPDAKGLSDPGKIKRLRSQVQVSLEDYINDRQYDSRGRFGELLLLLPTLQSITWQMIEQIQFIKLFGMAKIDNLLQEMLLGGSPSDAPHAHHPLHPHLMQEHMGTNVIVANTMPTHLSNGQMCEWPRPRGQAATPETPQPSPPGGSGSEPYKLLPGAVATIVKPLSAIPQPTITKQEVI
ALR H2O2 inh = inhibitors of human ALR sulfhydryl oxidase, primary screen, biochemical, H2O2 detection, HRP-luminol luminescence, single point; hit rate 3.8% among 290,000; FAD-linked sulfhydryl oxidase ALR (Homo sapiens), P55789; AID 485317, 2010; inhibition, % (test concentration not listed); purified ALR, DTT oxidation;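 active = mean and each replicate at 75% or more; inconclusive = only one of the two met; inactive = neither met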;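 note: stock transfer was 7.5 nL into about 7.5 µL; 0% = neutral wells and 100% = wells with inactivated enzyme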
Target sequence (P55789 whole entry, looked up): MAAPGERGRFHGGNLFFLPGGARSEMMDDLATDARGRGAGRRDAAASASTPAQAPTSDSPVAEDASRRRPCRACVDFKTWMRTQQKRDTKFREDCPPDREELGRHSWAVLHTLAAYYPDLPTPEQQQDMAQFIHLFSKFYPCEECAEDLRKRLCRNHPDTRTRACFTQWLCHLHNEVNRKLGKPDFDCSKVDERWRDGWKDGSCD
FGF22 binding = binders of human FGF22 protein, primary screen, FGF22 synaptogenesis inhibitor project, biophysical, thermal shift, single point; Fibroblast growth factor 22 (Homo sapiens), Q9HCT0; recombinant FGF22 thermal shift, SYPRO orange fluorescence; percent of sucrose octasulfate shift, DMSO zero; calls only at 9.99 µM; hit rate 1.5% among 340,000; AID 651658, 2012;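 active = melting point raised past a set limit in the mean and every replicate; inconclusive = no clear call; three in four hits are not shown here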
Target sequence (Q9HCT0 whole entry, looked up): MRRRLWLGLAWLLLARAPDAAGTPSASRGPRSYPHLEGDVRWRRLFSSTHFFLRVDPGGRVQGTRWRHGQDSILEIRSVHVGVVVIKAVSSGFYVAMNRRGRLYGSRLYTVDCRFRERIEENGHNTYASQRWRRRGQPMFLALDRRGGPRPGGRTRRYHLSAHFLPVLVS
rRNA inh HTS = reduced GFP signal of wild-type E. coli, primary screen, bacterial rRNA inhibitor project, GFP/RFP fluorescence, OD600, single point; E. coli WT GFP vs humanized-ribosome RFP mutants, 24 h; hits give low values; DMSO median 0, no signal -100; GFP signal change (wild-type ribosome), % (no concentration beside the values); hit rate 1.6% among 350,000;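 active = significant combined selectivity score with lowered wild-type GFP, culture density cut under 30%, mutant RFP and density less affected; inactive = any of these conditions unmet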; note: one replicate is shown; some compounds called inactive have numbers as strong as hits
Vif TR-FRET = inhibitors of Vif binding to APOBEC3G peptide, primary screen, biochemical, TR-FRET, GST-Vif 1-94, biotin-A3G peptide, dose response retest (AID 1117319); Virion infectivity factor (Human immunodeficiency virus type 1 group M subtype B (isolate …; TR-FRET GST-Vif / biotin-A3G peptide binding; higher % means a stronger effect; test concentration not given here; strong numbers were not always called active; hit rate 0.57% among 260,000; inhibition, %, or IC50 in µM where a hit was titrated;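 active = above the screen mean plus three standard deviations and confirmed in dose response; inconclusive = results disagree or hit not tested in dose response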;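 note: Vif residues 1-94 fused to GST binding biotinylated APOBEC3G peptide 110-148; 0% = full assay without inhibitor and 100% = GST in place of GST-Vif; retest series ran down from 100 µM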
rRNA inh HTS OD600 = second read-out of rRNA inh HTS, no call of its own (marks repeat the call); OD600 change, %; measured here: OD600 growth;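 optical density of the mix in the first replicate; 0 = DMSO median and -100 = no signal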
rRNA inh HTS RFP = second read-out of rRNA inh HTS, no call of its own (marks repeat the call); RFP signal change, %; measured here: RFP humanized mutant strains;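 first replicate; 0 = DMSO median and -100 = no signal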
The depositor's hits bear a star; i = inactive; ? = inconclusive; . = no result given.

SMILES | AF4-AF9 inh | E coli growth | HNF4A DNA FP | ALR H2O2 inh | FGF22 binding | rRNA inh HTS | rRNA inh HTS OD600 | rRNA inh HTS RFP | Vif TR-FRET
COc1ccc(Nc2ccnc3ccccc23)cc1 | . | 0.659 | -0.8 | 15.5 | . | . | . | . | 0.6%
CN(C)/C=N/S(=O)(=O)c1ccc(Cl)c(Cl)c1 | -3.0 | . | 4.0 | -3.3 | i | 1.5 | -14.0 | -2.1 | .
CC(C)NC(=O)N(C)C[C@H]1Oc2ncc(C#CC3CC3)cc2C(=O)N([C@@H](C)CO)C[C@H]1C | -2.1 | . | . | . | i | 5.8 | 4.8 | -5.1 | .
CC(=O)c1sc(NC(=O)CCCOc2ccccc2C)nc1C | -0.7 | 0.701 | -0.8 | -2.7 | i | 5.6 | 9.4 | 0.6 | -9.7%
O=C1C=C(c2ccccc2Oc2ccccc2)C[C@@H](c2ccc3c(c2)OCO3)C1 | -0.2 | . | 1.1 | 2.8 | i | 1.5 | -5.9 | -1.4 | .
COc1ccc(N2CCN(C(=O)CCCOc3cc(=O)n(C)c4ccccc34)CC2)cc1 | . | 0.733 | -1.1 | 7.2 | . | . | . | . | 8.2%
O=C([C@@H]1[C@@H](CO)[C@@H]2Cn3c(ccc(-c4ccccc4)c3=O)[C@H]1N2CCC(F)(F)F)N1CCOCC1 | -0.8 | . | . | . | i | -1.4 | 6.9 | -1.1 | .
Cc1ccc(N2C(=O)Nc3cc(Cl)c(Cl)cc3N2O)cc1Cl | -1.4 | 0.681 | 1.0 | 8.8 | i | -8.0 | -4.4 | -1.2 | 4.3%
O=C(CCCCCn1c(=S)[nH]c2ccccc2c1=O)N1CCOCC1 | . | 0.703 | 3.9 | 1.5 | . | . | . | . | -38.4%
Cn1c2ccccc2c(=O)c2c(=O)n(-c3ccc(F)cc3)c(C3CCCCC3)nc21 | 2.8 | 0.661 | 4.0 | . | i | 10.4 | 6.8 | -2.5 | .
C[C@@H]1CN([C@@H](C)CO)C(=O)c2cc(C3=CCCC3)cnc2O[C@H]1CN(C)C | -3.2 | . | . | . | i | 2.4 | -13.4 | -1.7 | .
Cc1ccc(S(=O)(=O)N2CCN(C(=O)COC(=O)COc3ccccc3C(C)C)CC2)c(C)c1 | 0.2 | 0.655 | -0.4 | . | i | 7.1 | 0.8 | -2.3 | .
C[C@@H]1CN([C@@H](C)CO)C(=O)c2cc(C#Cc3ccccc3)cnc2O[C@@H]1CN(C)C(=O)c1ccccn1 | -9.7 | . | . | . | i | -2.5 | -1.4 | 0.0 | .
O=C(COc1ccccc1)Nc1c(C(=O)N2CCC(N3CCCCC3)CC2)oc2ccccc12 | -3.6 | 0.733 | 0.1 | -4.7 | i | 7.7 | 19.3 | -1.4 | .
CN(C)C(=O)c1cccc(-c2ccc3c(c2)[C@H]2[C@H](CCN2C(=O)Cc2ccccc2)[C@@H](CO)N3)c1 | -1.3 | . | . | . | i | -1.9 | -6.5 | -0.8 | .
Cc1nc(SCc2nc3ccc(Br)cc3[nH]2)c2oc3ccccc3c2n1 | 2.1 | 0.713 | -0.2 | 1.8 | i | -7.2 | -11.9 | 37.3 | .
CNC(=O)c1cc(C(=O)c2ccc(F)cc2C(F)(F)F)c[nH]1 | -0.3 | 0.659 | 2.4 | 2.2 | i | -14.4 | 4.1 | -1.6 | -0.9%
CCCCNC(=O)C1C(c2ccc(C(F)(F)F)cc2)=Nc2ccccc2N1C(=O)c1ccc2nc(C)[nH]c2c1 (stereo not drawn) | -1.1 | . | 0.1 | . | i | 0.6 | 1.2 | -2.6 | .
Cc1ccc(S(=O)(=O)NNC2CC(=O)N(c3ccc(Br)cc3)C2=O)cc1 (stereo not drawn) | -4.7 | 0.738 | 2.2 | -11.0 | i | 12.0 | 9.4 | 0.6 | .
O=C(c1ccc(Cl)cc1)C1CCN(C(=O)c2ccc(F)cc2)CC1 | -0.4 | 0.621 | -3.1 | . | i | -28.3 | -25.1 | -4.1 | -1.9%
CCN(C(=O)COC(=O)CCOc1cccc(C)c1)c1c(N)n(Cc2ccccc2)c(=O)[nH]c1=O | -0.7 | 0.666 | 0.9 | . | i | 1.8 | 8.8 | -1.7 | 6.5%
COc1ccccc1C(=O)Nc1nnc(-c2ccco2)s1 | -2.9 | 0.673 | -1.2 | 7.8 | i | 0.6 | 3.4 | -2.0 | -6.0%
C/C(=N\Nc1ccc(Cl)c(C(=O)O)c1)c1cc2ccccc2o1 | 4.0 | . | -1.4 | 98.5* | i | -16.7 | -5.3 | -2.3 | 13.5%
Cc1ccc(S(=O)(=O)NCC(=O)OC(C)C(=O)NC(=O)NC2CCCCC2)cc1C (stereo not drawn) | -1.8 | 0.644 | 0.1 | . | i | -20.1 | -37.5 | -0.3 | -4.4%
O=C(CSc1nccc(=O)[nH]1)Nc1cccc(S(=O)(=O)N2CCOCC2)c1 | 0.6 | 0.677 | 1.6 | -23.1 | i | 1.4 | -7.3 | 0.9 | -6.7%
O=C(N/N=C/c1c(Cl)cccc1Cl)c1ccccc1F | 2.6 | . | -1.3 | -3.6 | i | 1.9 | 5.4 | 13.4 | 10.0%
Cc1ccc(C(=O)NCC(=O)OCCOc2cccc(Cl)c2)cc1 | -1.7 | 0.676 | -1.0 | 1.5 | i | -3.0 | -2.0 | -0.1 | 7.5%
CN(C)C(=O)C[C@H]1C=C[C@H](NC(=O)NC2CCCCC2)[C@H](CO)O1 | 0.5 | . | . | . | i | -0.3 | -1.2 | -0.1 | .
Oc1ccc(NCc2ccccc2OCc2ccccc2F)cc1 | . | 0.721 | 0.3 | -9.7 | . | . | . | . | ?
Cc1ccccc1-n1nnnc1SCC(=O)NC1CC1 | -3.2 | 0.714 | -2.2 | -0.8 | i | 2.3 | 0.0 | -4.4 | -15.4%
Cc1ccccc1C(=O)Nc1ccc(C(=O)N/N=C/c2ccc(O)cc2)cc1 | -2.3 | . | 3.4 | 94.9* | i | 1.2 | 12.3 | -4.5 | .
O=C(CCC(=O)N1CCN(c2ccccn2)CC1)Nc1nnc(C(F)(F)F)s1 | -4.8 | 0.664 | 2.8 | -2.5 | i | 8.9 | 1.7 | 0.4 | 0.2%
CN1CCN(c2ccc(S(=O)(=O)N3CCOCC3)cc2NC(=O)CCc2ccccc2)CC1 | 4.2 | 0.672 | 1.0 | -20.4 | i | 7.3 | 2.6 | -7.7 | 4.6%
N#C[C@@H]1[C@H](c2ccc(C#Cc3ccccc3F)cc2)[C@@H](CO)N1C(=O)C1CCC1 | -2.6 | . | . | . | i | 1.4 | -3.2 | -1.0 | .
Cn1c(=O)[nH]c(=O)c2c1nc(N1CCCCCC1)n2CCN1CCCCCC1 | . | 0.672 | 0.5 | 22.3 | . | . | . | . | 15.5%
O=c1ccc(Cl)cn1Cc1ccccc1F | . | 0.663 | 1.9 | . | . | . | . | . | ?
Cc1cccc(C)c1OCC(=O)OC/C(O)=C(\C#N)c1nc2ccccc2[nH]1 | 1.2 | 0.672 | 12.2 | . | i | 5.5 | 11.3 | -1.7 | 10.8%
Cc1cc(N2CCCc3ccccc32)n2ncnc2n1 | 0.1 | 0.77 | 0.6 | -11.5 | . | 0.8 | 6.5 | -0.2 | 11.0%
C[C@H](CO)N1C[C@H](C)[C@H](CN(C)C)Oc2cc(C#Cc3ccncc3)ccc2S1(=O)=O | -6.9 | . | . | . | i | 11.8 | 7.2 | 1.0 | .
CCC(c1nnnn1-c1ccc2c(c1)OCCO2)N1CCN(C(=O)c2ccco2)CC1 (stereo not drawn) | -2.5 | . | -3.5 | . | i | 1.7 | 1.7 | 4.9 | .
O=C(CCC(=O)c1cccs1)Nc1ccccc1F | . | 0.661 | 0.9 | -4.6 | . | 1.1 | 0.0 | -3.5 | -4.5%
COc1ccc(NC(=O)COC(=O)c2cc(Cl)ccc2O)cc1S(=O)(=O)N1CCCCC1 | 1.6 | 0.719 | -0.3 | . | i | . | . | . | -7.1%
CC1=NN(c2ccccc2)C(=O)C1N=Nc1cccc(O)c1 (stereo not drawn) | 1.3 | 0.694 | -0.5 | -25.1 | i | -26.3 | -27.6 | 0.9 | .
CCOC(CNC(=O)c1ccc2c(c1)ncn2-c1cccc(F)c1)OCC | -1.9 | 0.727 | 1.1 | -3.3 | i | 15.5 | 10.3 | 0.9 | 1.3%
CC(C)c1ccc(NC(=O)[C@H]2CSCN2C(=O)[C@@H]2CCC(=O)N2)cc1 | 1.3 | 0.579 | 2.3 | 2.1 | i | 2.0 | 3.7 | 0.9 | 4.4%
C[C@H]1CN([C@@H](C)CO)C(=O)c2cc(NC(=O)C3CC3)ccc2O[C@@H]1CN(C)C(=O)Nc1ccc(F)cc1 | -1.1 | . | . | . | i | 1.5 | 6.5 | -0.7 | .
OCCCCc1nccc2c1[nH]c1ccccc12 | 0.3 | 0.655 | -1.1 | -1.9 | i | 4.5 | 2.1 | -0.8 | 1.3%
N#C[C@H]1[C@@H](c2ccc(C3=CCCC3)cc2)[C@H](CO)N1C(=O)C1CCC1 | -1.5 | . | . | . | i | 1.4 | 5.1 | -3.0 | .
COc1cccc(C(=O)Nc2ccc(Cl)c(C(F)(F)F)c2)c1 | . | 0.651 | 2.0 | 0.5 | . | . | . | . | 4.8%
CC1(c2ccc3ccccc3c2)NC(=O)N(CC(=O)NCc2cccs2)C1=O (stereo not drawn) | -2.2 | 0.7 | 2.9 | -8.6 | i | -27.8 | -44.9 | -8.7 | .
(list continues)
SMILES | AF4-AF9 inh | E coli growth | HNF4A DNA FP | ALR H2O2 inh | FGF22 binding | rRNA inh HTS | rRNA inh HTS OD600 | rRNA inh HTS RFP | Vif TR-FRET
CCCCn1c(N)c(N(CC)C(=O)c2ccccc2C(F)(F)F)c(=O)[nH]c1=O | -0.5 | 0.662 | -0.4 | . | i | . | . | . | -0.3%
CC(=O)c1ccc(OCC(=O)N(C2CCCCC2)C2CCS(=O)(=O)C2)cc1 (stereo not drawn) | -0.2 | 0.709 | 1.5 | -6.8 | i | 4.1 | 13.8 | -3.5 | -0.9%
Cc1cc(C)nc(-n2nc(C)cc2NC(=O)CNC(C)c2ccccc2)n1 (stereo not drawn) | . | 0.698 | 2.0 | 8.1 | . | . | . | . | -1.9%
Cc1ccc(C2(O)C(=O)c3ccccc3C2=O)c(O)c1C | 0.3 | 0.671 | -3.0 | . | i | -16.0 | -24.4 | -0.3 | 8.3%
Cc1ccc(-n2nc3ccc(N)cc3n2)cc1 | . | 0.668 | -0.7 | 4.4 | . | . | . | . | -3.3%
COc1cc(/C=N/n2c(COc3ccccc3)n[nH]c2=S)cc(Br)c1O | -4.2 | . | 1.0 | 97.0* | i | -9.4 | -12.4 | 5.2 | 1.5%

As entered above:
For Vif TR-FRET, `Cc1cc(C)nc(-n2nc(C)cc2NC(=O)CNC(C)c2ccccc2)n1` (stereo not drawn) shows -1.9%
For E coli growth, `CC(=O)c1ccc(OCC(=O)N(C2CCCCC2)C2CCS(=O)(=O)C2)cc1` (stereo not drawn) shows 0.709

A portion of the library. The share of hits here may be higher or lower than overall.
